KCNQ2 inh: KCNQ2 potassium channel inhibitors, primary screen, cell-based, CHO-K1, FluxOR thallium flux, B-score (AID 2156); O88943; hit rate 1.1% among 310,000; B-score at 10 µM; 20 min; active compounds read low; only compounds with negative scores are shown here; some inactives read as strong as hits;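 active = fluorescence ratio B-score at most minus 3 library SDs, with starting brightness B-score within 2 library SDs, cut at about -5.5 in these data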
Target sequence (O88943 whole entry, looked up): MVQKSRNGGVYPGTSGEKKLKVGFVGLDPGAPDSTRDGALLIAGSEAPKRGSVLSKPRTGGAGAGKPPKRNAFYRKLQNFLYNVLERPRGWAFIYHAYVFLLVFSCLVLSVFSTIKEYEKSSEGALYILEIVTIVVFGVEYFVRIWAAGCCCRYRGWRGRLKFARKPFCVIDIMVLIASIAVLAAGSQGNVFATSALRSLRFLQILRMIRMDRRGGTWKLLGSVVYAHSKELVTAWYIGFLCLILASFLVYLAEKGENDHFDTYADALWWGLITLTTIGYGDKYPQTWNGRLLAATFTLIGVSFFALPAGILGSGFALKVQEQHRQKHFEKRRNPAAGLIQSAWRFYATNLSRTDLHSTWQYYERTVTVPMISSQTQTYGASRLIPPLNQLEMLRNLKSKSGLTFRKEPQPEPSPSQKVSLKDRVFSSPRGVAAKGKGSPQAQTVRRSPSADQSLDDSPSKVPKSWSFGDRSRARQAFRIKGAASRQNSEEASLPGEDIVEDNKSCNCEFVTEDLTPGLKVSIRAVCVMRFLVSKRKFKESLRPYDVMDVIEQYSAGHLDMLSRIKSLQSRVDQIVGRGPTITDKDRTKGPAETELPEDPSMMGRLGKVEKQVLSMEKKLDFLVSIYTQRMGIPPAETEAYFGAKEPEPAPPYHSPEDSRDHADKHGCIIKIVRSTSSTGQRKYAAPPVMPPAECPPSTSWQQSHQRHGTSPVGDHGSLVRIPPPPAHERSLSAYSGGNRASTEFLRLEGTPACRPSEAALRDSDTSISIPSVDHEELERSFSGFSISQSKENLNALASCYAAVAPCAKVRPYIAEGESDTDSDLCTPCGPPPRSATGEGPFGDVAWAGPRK
KCNQ2 inh baseline: recorded beside KCNQ2 inh, whose call it bears; B-score; measured here: initial fluorescence intensity artifact check;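 brightness before thallium and not channel activity; 0 = typical well and far values either way flag optical interference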
Starred values were filed as active, the others as inactive; i = inactive.

SMILES | KCNQ2 inh | KCNQ2 inh baseline
COc1ccc(/C=C(/NC(=O)c2ccccc2)C(=O)N/N=C/c2sccc2C)cc1 | i | 0.46
CCOC(=O)N1CCN(C(=O)C2CCCN(S(=O)(=O)c3ccc(OCC)cc3)C2)CC1 (stereo not given) | i | -0.34
O=c1c2ccccc2nc(/C=C/c2cccc([N+](=O)[O-])c2)n1CCO | i | -0.02
Cc1cccc(-n2c(SCC(=O)Nc3ncc(Cl)cc3Cl)nc3ccccc32)c1 | i | -0.52
COc1ccc(C2CC(c3ccc(OC)c(OC)c3)=NN2S(C)(=O)=O)cc1 (stereo not given) | i | 2.52
O=C(O)c1ccc(-n2nncc2-c2ccco2)cc1 | i | -0.66
O=C(NCCN1CCCCC1)c1cc(Cl)ccc1Cl | i | -1.14
Clc1ccc(-c2nc3ncccn3c2Nc2ccc3c(c2)OCCO3)cc1 | i | -1.95
COc1ccc(Cl)cc1NC(=O)CN(C)C(=O)c1cc(-c2cccs2)nn1-c1ccccc1 | i | -0.44
O=C(CSCc1ccccc1Cl)NNC(=S)Nc1ccccc1 | i | 0.42
O=C(CSc1nc2ccccc2c(=O)n1CC1CCCO1)Nc1ccccc1Cl (stereo not given) | i | -0.51
COc1cccc(OC)c1C(=O)NC(=S)Nc1ccc(S(=O)(=O)Nc2nccs2)cc1 | i | -0.74
N/C(=N\OC(=O)c1cccc(Br)c1)c1ccccn1 | i | -1.31
CC(C)Nc1nc(NC(C)(C)C)nc(Oc2ccc(=O)n(C)n2)n1 | i | 1.87
CC(C)=CC(=O)OCC(=O)Nc1ncc(Cl)c(C)c1Cl | i | -0.8
COc1cc(-c2cc(-c3nnco3)c3ccccc3n2)cc(OC)c1OC | i | 1.1
O=C(CSc1nc2ccccc2c(=O)n1NC(=O)c1ccccc1)c1ccccc1 | -11.7* | -0.82*
COc1cccc(NC(=O)C(=O)N/N=C/c2cc(C)n(-c3ccc(Cl)c(Cl)c3)c2C)c1 | i | -1.15
CC1CCN(S(=O)(=O)c2ccc(NC(=S)NC(=O)c3ccc(Cl)cc3)cc2)CC1 | i | 0.91
C#CCNc1c(C)c(C)nc2ncnn12 | i | -0.65
O=C(O)/C=C/C(=O)NCc1cn(-c2ccccc2)nc1-c1cccc(Br)c1 | i | -0.95
Cc1csc(NC(=O)Cc2ccc(Br)cc2)n1 | i | 0.2
O=C(Nc1ccc2c(c1)C(=O)NC2=O)c1cc(Cl)ccc1Cl | i | -0.81
CCOc1cc(C(=O)CCC(=O)OCC(=O)N2c3ccccc3NC(=O)C2(C)C)ccc1O | i | -1.96
Clc1ccccc1OCc1nc(-c2ccccn2)no1 | i | 1.85

More entries follow:
SMILES | KCNQ2 inh | KCNQ2 inh baseline
COc1cccc(C(=O)CN2C(=O)C(C)(C)Oc3ccc(C(=O)N4CCCCCC4)cc32)c1 | i | 1.27
COc1ccc(/C=C2\SC(=S)N(CCCC(=O)N3CCCCC3CCO)C2=O)cc1 (stereo not given) | i | -0.18
Cc1ccccc1NCC(=O)N/N=C\C=C\c1cccc([N+](=O)[O-])c1 | i | 0.2
Cc1ccc(Oc2coc3cc(OC(=O)c4cccs4)ccc3c2=O)cc1 | i | -0.58
CCCCNc1c2c3c(cccc3n(C)c1=O)C(=O)c1ccccc1-2 | i | 73.2
COC(=O)c1ccc2c(=O)n(CCN3CCOCC3)c(SCC(=O)c3ccccc3)nc2c1 | i | 2.25
CN(C)c1ccc(C(=O)NC2CCCc3ccccc32)cc1 (stereo not given) | i | 0.06
COc1cc(OC)c(C(=O)/C=C/c2ccccc2)c(O)c1O | i | -0.73
CC(C)(C)c1cc2cccnc2n1Cc1cccc(Cl)c1 | i | 0.92
COC(=O)c1sccc1NC(=O)c1ccc(C)s1 | i | -0.8
CCN(CC)C(=O)C1CCCN(C(=O)c2oc3ccc(C)cc3c2C)C1 (stereo not given) | -6.97* | -1.57*
CCN(CC)C(=O)c1cc2c(=O)c3cc(F)ccc3oc2nc1C | -9.56* | -0.74*
Cc1nc(C(=O)NCCC(C)C)sc1C1(C)CC(c2cccc([N+](=O)[O-])c2)=NO1 (stereo not given) | i | -0.85
O=C(NCCc1nnc2ccc(NCCCN3CCOCC3)nn12)c1ccccc1F | i | -0.03
COc1ccc(C2c3c(nc[nH]c3=O)Oc3nc[nH]c(=O)c32)cc1 | i | -0.72
COc1ccc2c(COC(=O)CC3Sc4ccccc4NC3=O)cc(=O)oc2c1 (stereo not given) | i | -0.39
CCOC(=O)CSc1nnc(-c2ccco2)n1-c1ccccc1 | i | -0.19
CCOc1ccc(C(CCc2ccccc2)NC(=O)c2ccccc2)cc1OCC (stereo not given) | i | 1.18
C/C(=N\NC(=O)Cc1ccc(Cl)cc1)c1cccc(NC(=O)c2cccnc2)c1 | i | -0.91
O=C(NC(=S)Nc1ccc(Br)cn1)c1cccnc1 | i | -0.27
Cc1ccc2cc(CCNC(=O)CC(C)(C)C)c(=O)[nH]c2c1C | i | 0.72
COc1ccc(OC)c(-c2nnc(-c3ccc(C)o3)o2)c1 | i | 1.08
CC1CC(C)CN(c2nc(NCc3ccco3)nc(N)c2[N+](=O)[O-])C1 (stereo not given) | i | -0.94
CCOCCCNC(=O)c1ccc(/C=C2\Oc3ccccc3N(C)C2=O)cc1 | i | -1.03
Cn1cc(CC(=O)NCCCN2CCOCC2)c2ccccc21 | i | -1.56

Record cards, from the list above. Order of values: KCNQ2 inh | KCNQ2 inh baseline
O=C(NC(=S)Nc1ccc(Br)cn1)c1cccnc1 is entered as i | -0.27
CCOc1ccc(C(CCc2ccccc2)NC(=O)c2ccccc2)cc1OCC (stereo not given) is entered as i | 1.18
O=C(NCCc1nnc2ccc(NCCCN3CCOCC3)nn12)c1ccccc1F is entered as i | -0.03
Clc1ccccc1OCc1nc(-c2ccccn2)no1 is entered as i | 1.85
O=C(CSc1nc2ccccc2c(=O)n1CC1CCCO1)Nc1ccccc1Cl (stereo not given) is entered as i | -0.51

Other results:
SMILES | KCNQ2 inh | KCNQ2 inh baseline
Cc1nc(C)c(C(=O)Nc2ccccc2-c2ccccc2)o1 | i | -0.61
Cc1cccc(COCC(Cc2ccccc2)N2CCN(C(=O)c3cc(Cl)cc(Cl)c3)CCC2=O)c1 (stereo not given) | i | 1.29
CCOC(=O)Cn1nnnc1C(CC)N(Cc1cc2ccc(C)cc2[nH]c1=O)C1CCCC1 (stereo not given) | i | -1.37
COC(=O)C(Cc1cnc(Cl)s1)(C(=O)OC)c1ccc(C(F)(F)F)cc1[N+](=O)[O-] | i | -0.54
CCOc1ccccc1NC(=O)CCN1CCN(S(=O)(=O)c2ccc(OC)cc2)CC1 | i | -0.91
CCc1ccc(NC(=O)C(=O)NCC2CCCN2S(=O)(=O)c2cccs2)cc1 (stereo not given) | i | 1.68
COc1ccccc1N(CC(=O)NCc1ccc(F)cc1)C(=O)CCC(=O)Nc1ccccn1 | i | 1.21
CC(C)CCNC(=O)C1CCCN(S(=O)(=O)c2ccc3c(c2)CC(C)N3C(=O)C2CC2)C1 (stereo not given) | i | 1.59
O=C(CCc1ccccc1)Nc1cc(C(F)(F)F)ccc1Cl | i | -0.12
CC(C)Cc1nc(S(=O)(=O)c2ccc(Cl)cc2)c(N2CCOCC2)o1 | i | -1.23
O=C(Nc1ccc(C(=O)O)cc1)/C(=C\c1ccco1)NC(=O)c1ccccc1 | i | -1.48
Cc1sc2nc(CSc3ncn[nH]3)[nH]c(=O)c2c1C | i | 2.31
CC(C)OCCCNc1ncnc2c1[nH]c1ccc(F)cc12 | i | -1.94
O=C(CC1SC(=NCc2ccccc2)NC1=O)Nc1ccccc1 (stereo not given) | i | -0.15
CN(C)S(=O)(=O)n1ccnc1 | i | -1.37
CC(=O)c1ccc(OCC(O)CN2CCN(c3ccc(F)cc3)CC2)cc1 (stereo not given) | i | 1.28
O=C(O)c1ccc(/C=N/Nc2ccc(S(=O)(=O)N3CCCC3)cc2[N+](=O)[O-])cc1 | i | -1.32
O=[N+]([O-])c1cc2cccnc2c2ncccc12 | i | -1.8
CCOc1ccc(C(C)=O)cc1COc1ccc(C)nc1[N+](=O)[O-] | i | 1.08
CCOCCC(=O)Nc1cc(Cl)ccc1OC | i | 0.55
O=C(CCCc1ccccc1)NCc1ccccc1Cl | i | 0.06
CC(=O)Nc1ccc(SCC(=O)Nc2ccccc2-c2ccccc2)cc1 | i | -0.35
Cc1c(C(=O)N(C)c2cccc(Cl)c2)cnn1-c1ccccc1 | i | -1.26
N#Cc1cc2c(nc1SCc1ccc(Cl)cc1)CCCC2 | i | -0.56
c1ccc(-c2nnc(C(c3ccccc3)c3ccccc3)o2)cc1 | i | -0.49

4 entries already listed, sorted by length of the SMILES, rising.
SMILES | KCNQ2 inh | KCNQ2 inh baseline
O=[N+]([O-])c1cc2cccnc2c2ncccc12 | i | -1.8
Cc1nc(C)c(C(=O)Nc2ccccc2-c2ccccc2)o1 | i | -0.61
O=C(CC1SC(=NCc2ccccc2)NC1=O)Nc1ccccc1 (stereo not given) | i | -0.15
CC(C)Cc1nc(S(=O)(=O)c2ccc(Cl)cc2)c(N2CCOCC2)o1 | i | -1.23

Further records.
SMILES | KCNQ2 inh | KCNQ2 inh baseline
CCOc1ccccc1N1CCN(C(=O)COc2ccc3c(C)cc(=O)oc3c2)CC1 | i | -0.47
CCOC(=O)N1CCN(C(=O)CSc2ccc(-c3ccc(OC)cc3)nn2)CC1 | i | 0.37
O=C(N/N=C/c1ccc(Br)cc1)c1cc[n+]([O-])cc1 | i | 0.62
CC(=O)NS(=O)(=O)c1ccc2sc(C)nc2c1 | i | 1.8
CC(C)C1Nc2ccc(C(=O)N3CCN(c4ccccn4)CC3)cc2NC1=O (stereo not given) | i | 3.81
C=CC(O)Cc1c(C)n[nH]c1C (stereo not given) | i | 1
CCOC(=O)N1CCN(C(=S)NCCOC)CC1 | i | 0.2
O=C(CSc1ccccc1)NCCCN1CCOCC1 | i | 0.85
COCCn1c(=O)[nH]c2cc(C(=O)NCc3cccnc3)ccc2c1=O | i | 0.08
COc1cc(S(N)(=O)=O)c(OC)cc1N | i | 0.11
CCOc1ccccc1-c1cc(C(=O)N/N=C(\C)c2cccnc2)c2ccccc2n1 | i | 0.02
Clc1cccc(Cl)c1OCCCCN1CCCCC1 | i | -0.83
CCCCNC(=O)CSc1nc2cc3c(cc2c(=O)n1Cc1ccco1)OCO3 | i | -0.08
Cn1ccsc1=NC(=O)c1ccc(S(C)(=O)=O)c([N+](=O)[O-])c1 | i | -0.76
CN1CCN(Cc2nc3c(c(=O)[nH]c(=O)n3C)n2CCc2ccccc2)CC1 | i | 1.1
CC(C)CNC(=O)NC(=O)CSc1nc2ccccc2n1CC(C)C | i | 0.47
CC(C)(C)/C(Cn1cncn1)=N\OC(=O)Nc1ccc(Cl)cc1 | i | 0.3
C=CCc1cccc(CNn2cnnc2)c1O | i | 2.07
CNC(=S)N/N=C/c1c(C)nn(-c2ccc(F)cc2)c1Cl | i | 0.64
O=C(NCC(c1ccco1)N1CCCC1)c1sc2ccccc2c1Cl (stereo not given) | i | -3.8
COC(=O)c1c(C)oc(C)c(C(=O)OC)c1=O | i | 1.92
O=C(NCc1ccc(C(F)(F)F)cc1)C1CC(c2ccccc2[N+](=O)[O-])=NO1 (stereo not given) | i | 0.7
O=C(CSc1ccccn1)Nc1ccc2c(c1)C(=O)c1ccccc1C2=O | i | 0.44
Cc1cc2oc(=O)c3c(c2cc1OC(=O)c1ccco1)CCCC3 | i | -1.03
CCCc1nnc(NC(=O)CC(=O)OCC)s1 | i | 0.04

Further records follow.
SMILES | KCNQ2 inh | KCNQ2 inh baseline
COc1ccc(N=C2NC(=O)/C(=C\C=C\c3ccco3)S2)cc1 | i | -0.98
CC1CC(N(C(=O)C2CC2)c2ccccc2)c2ccccc2N1C(=O)C1CC1 (stereo not given) | i | -3.11
O=c1c2ccccc2nc(SCc2cccc(F)c2)n1-c1cccc(S(=O)(=O)N2CCCC2)c1 | i | -0.33
Cc1cc(C)nc(SCc2c(F)cccc2Cl)n1 | i | 2.52
CC1=Cc2ccccc2C(C#N)N1C(=O)c1ccccc1 (stereo not given) | i | -2.05
CC(=O)NC(C)c1nc2ccccc2n1CC(=O)N1C(C)CCCC1C (stereo not given) | i | 0.54
CN(C)/C=C(\C(=O)c1ccccc1)c1nnnn1-c1ccccc1 | i | -0.03
Cc1cc(C(=O)CSc2nc3ccccc3c(=O)[nH]2)c(C)n1C | i | 0.71
Cc1ccc(NC(=S)N2CCC(c3nc4ccccc4s3)CC2)cc1 | i | -1.3
O=C(c1ccco1)N1CCN(C(c2ccccc2F)c2nnnn2Cc2cccs2)CC1 (stereo not given) | i | -1.42
Cc1cccc(C(=O)Nc2ccc(C(=O)/C=C/c3cccnc3)cc2)c1 | i | 0.03
Cc1cc(C(F)(F)F)n2[nH]c(=O)c(N=Nc3ccccc3)c2n1 | i | 0.55
COC(=O)c1ccc(CNC(=O)C2CCC(=O)N(C3CCCCCC3)C2)cc1 (stereo not given) | i | 0.42
Cc1ccc(-c2csc(NC(=O)c3cccc([N+](=O)[O-])c3)n2)cc1 | i | -0.72
CCn1c(SCC(=O)Nc2cccc(NC(C)=O)c2)nnc1C(C)C | i | 1.26
O=C(Cc1c(F)cccc1Cl)NCC(=O)OCc1ccccc1 | i | -1.46
O=C(O)C/C=C(/NC(=O)OCc1ccccc1)C(=O)OCc1ccccc1 | i | 0.51
CCC(C(=O)Nc1ccc2c(c1)OCCO2)c1ccccc1 (stereo not given) | i | -0.06
CC(=O)c1c2c3c(cccc3n(C)c1=O)C(=O)c1ccccc1-2 | i | 2.08
COc1ccc(NC(=O)c2ccc3c(=O)n(CC4CCCO4)c(=S)[nH]c3c2)c(OC)c1 (stereo not given) | i | 1.9
Cn1nnc(NC(=O)c2cccc(F)c2)n1 | i | 0.59
CN(c1ccc(C(=O)N2CCc3ccccc3C2)cc1)S(C)(=O)=O | i | 0.45

Screens (PubChem)

An excerpt; count on the stated rates, not on these rows.
